Screening results deposited in PubChem by Broad Institute.
rRNA inh HTS – selective bacterial rRNA inhibition in E. coli | E. coli WT GFP vs humanized-ribosome RFP mutants, fluorescence, 24 h; active compounds read low; DMSO median 0, no signal -100 | GFP signal change (wild-type ribosome), % (no concentration beside the values) | hit rate 1.6% among 350,000 | AID 720706;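 active means significant combined selectivity score with lowered wild-type GFP, culture density cut under 30%, mutant RFP and density less affected; inactive means any of these conditions unmet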; further: one replicate is shown; some compounds called inactive have numbers as strong as hits
rRNA inh HTS OD600 – recorded beside rRNA inh HTS, whose call it bears; OD600 change, %; measured here: OD600 growth;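 optical density of the mix in the first replicate; 0 = DMSO median and -100 = no signal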
rRNA inh HTS RFP – second read-out of rRNA inh HTS, no call of its own (marks repeat the call); RFP signal change, %; measured here: RFP humanized mutant strains;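 first replicate; 0 = DMSO median and -100 = no signal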
An asterisk follows results filed as active; & = joins results of further samples. This is a subset. The share of hits here may be higher or lower than overall.

Values run as follows: rRNA inh HTS | rRNA inh HTS OD600 | rRNA inh HTS RFP
- CO[C@H]1CN(C)C(=O)c2ccc(NC(=O)c3ccc(F)cc3)cc2OC[C@@H](C)N(C(=O)CN(C)C)C[C@H]1C
 : 2.9 | 5.5 | -0.6
- CN1CCCCN2[C@H](CO)[C@H](c3ccc(C#CC4(O)CCCC4)cc3)[C@@H]2C1
 : 2.2 | 13.3 | -0.9
- CC(C)C#Cc1ccc2c(c1)O[C@H](CN(C)S(=O)(=O)c1cn(C)cn1)[C@@H](C)CN([C@H](C)CO)S2(=O)=O
 : -6.1 | -12.1 | -4.0
- CCCNC(=O)C[C@@H]1C[C@H]2c3cc(NS(=O)(=O)c4ccc(F)cc4)ccc3O[C@H]2[C@H](CO)O1
 : -2.0 | -13.3 | -1.9
- C[C@@H]1CN([C@@H](C)CO)C(=O)c2cc(NS(=O)(=O)c3ccc(Cl)cc3)ccc2O[C@H]1CN(C)Cc1ccccc1
 : -3.1 | -5.0 | 2.7
- C=CCN1C[C@@H](COCc2ccccc2)OCCS1(=O)=O
 : 6.8 | -1.6 | 3.8
- C[C@H]1CN([C@@H](C)CO)C(=O)c2cc(-c3cccnc3)cnc2O[C@@H]1CN(C)Cc1ccc(Oc2ccccc2)cc1
 : 2.3 | -15.9 | 2.7
- C[C@@H]1CN([C@H](C)CO)C(=O)c2cccc(NC(=O)C3CC3)c2O[C@@H]1CN(C)C(=O)Nc1cccc2ccccc12
 : 2.3 | 12.3 | 1.4
- C/C=C/c1ccc2c(c1)O[C@@H](CN(C)C(=O)CN(C)C)[C@H](C)CN([C@@H](C)CO)S2(=O)=O
 : 4.4 | -2.6 | -1.0
- Cc1noc(C)c1NC(=O)N(C)C[C@H]1Oc2ccc(NS(=O)(=O)c3ccc(Cl)cc3)cc2CC(=O)N([C@H](C)CO)C[C@@H]1C
 : 2.7 | 4.2 | 1.0
- O=C(NCCc1ccc2c(c1)OCO2)Oc1ccccc1
 : 8.8 | 9.9 | 0.3
- Cc1noc(C)c1S(=O)(=O)Nc1ccc2c(c1)C(=O)N([C@H](C)CO)C[C@H](C)[C@H](CN(C)Cc1ccc(C(=O)O)cc1)OCCCC[C@H](C)O2
 : -0.2 | -0.8 | -2.5
- CCN1C(=O)[C@@H]2[C@@H]3CN(S(=O)(=O)c4ccc(C)cc4)[C@@H](c4ccccc4)[C@@H]3C(=O)C[C@@H]2C1=O
 : -4.1 | -7.1 | 0.7
- C[C@@H]1CN([C@@H](C)CO)C(=O)c2cc(NC(=O)CCC(F)(F)F)ccc2O[C@@H]1CN(C)Cc1ccc(Cl)c(Cl)c1
 : -48.3 | -72.1 | -2.9
- COc1ccncc1-c1ccc(C2=CC(=O)CC(C)(C)C2=O)cc1
 : -9.6 | -9.6 | -0.3
- C[C@@H]1CN([C@H](C)CO)S(=O)(=O)c2ccc(C3=CCCC3)cc2O[C@@H]1CN(C)C(=O)C1CCOCC1
 : -4.6 | -6.7 | 1.6
- C[C@H]1CN([C@@H](C)CO)C(=O)c2ccccc2-c2ccccc2CO[C@H]1CN(C)C(=O)Nc1cccc(F)c1
 : -2.5 | -4.4 | -1.0
- O=C(N[C@@H]1CC[C@H](CCNC(=O)C2CCC2)O[C@@H]1CO)c1ccncc1
 : -0.3 | 1.6 | -2.0
- N#C[C@H]1[C@H](c2ccc(C#CC3CCCC3)cc2)[C@H](CO)N1C(=O)Nc1ccc(F)cc1
 : -13.8 | -50.0 | 16.5
- COc1cccc(CNC(=O)[C@@H]2CCCN2C(=O)[C@H]2CCCCN2C(=O)c2c(F)cccc2F)c1
 : -2.4 | 0.6 | -2.3
- COCC(=O)Nc1ccc2c(c1)OC[C@@H](C)N(C(=O)NC(C)C)C[C@H](C)[C@H](OC)CN(C)C2=O
 : 1.9 | 4.6 | -2.6
- C[C@@H]1CN([C@H](C)CO)C(=O)c2ccccc2-c2ccccc2CO[C@@H]1CN(C)C(=O)c1ccc(F)cc1
 : 1.0 | 4.9 | -1.4
- C[C@@H]1CN([C@H](C)CO)C(=O)c2cc(C#CC3CCCCC3)cnc2O[C@@H]1CN(C)C(=O)Nc1ccccc1
 : 0.5 | -12.4 | 8.2
- Cc1ccc(S(=O)(=O)NC(=O)NC2=NC(C)(C)N(c3ccc(Cl)c(Cl)c3)C(N)=N2)cc1
 : 9.1 | 20.8 | 1.6
- COCC(=O)Nc1ccc2c(c1)OC[C@@H](C)N(C(=O)CC1CC1)C[C@H](C)[C@H](OC)CN(C)C2=O
 : 2.2 | 1.0 | -2.0
- C[C@H]1CN([C@@H](C)CO)C(=O)c2cc(NS(C)(=O)=O)ccc2O[C@H]1CN(C)C(=O)Nc1cccc2ccccc12
 : 1.3 | 8.3 | -1.0
- CCC(=O)N1CC2(C1)CN(C(=O)Cc1ccccc1)[C@@H](CO)c1c2c2ccc(OC)cc2n1C
 : -0.1 | 8.0 | -3.3
- CN(C)C(=O)c1cc2c(c(-c3cccc(C4=CCCCC4)c3)n1)[C@H](CCO)N([S@@](=O)C(C)(C)C)C2
 : -3.5 | 10.1 | 16.5
- COc1ccc(S(=O)(=O)N2CCC(C(=O)NCCC(=O)NCc3cccnc3)CC2)cc1
 : 12.5 | 23.9 | -2.7
- CNC[C@H]1OCCCC[C@H](C)Oc2ccc(NS(=O)(=O)c3c(C)noc3C)cc2C(=O)N([C@H](C)CO)C[C@@H]1C
 : 2.9 | 3.1 | 0.7
- CCC(=O)N[C@@H]1C=C[C@@H](CC(=O)NCC2CC2)O[C@@H]1CO
 : 3.3 | -5.0 | -1.3
- CC(C)(O)C#Cc1ccc([C@@H]2[C@@H](CO)N3CCCCN(C(=O)c4ccncc4)C[C@H]23)cc1
 : 4.1 | 12.7 | 1.5
- OC[C@@H]1[C@@H](c2ccc(C#Cc3ccccc3)cc2)[C@@H]2CN(CC3CCOCC3)CCCCN12
 : 1.7 | -42.5 | 20.4
- C[C@H]1CN([C@@H](C)CO)C(=O)c2cc(NC(=O)C3CCCCC3)ccc2O[C@H]1CN(C)Cc1ccc(Oc2ccccc2)cc1
 : 4.9 | -7.8 | 10.5
- CC(C)(C)c1ccc(CC(=O)N2CCC2(C)C(=O)NS(=O)(=O)c2ccc(Cl)s2)cc1 (stereo unspecified)
 : 8.0 | 9.7 | 5.3
- CN(C)c1ccc2c(c1)[C@H]1C[C@H](CC(=O)NCc3ccc(Oc4ccccc4)cc3)O[C@H](CO)[C@H]1O2
 : -5.4 | -5.5 | 7.3
- C[C@H](C(=O)N(C)C[C@@H]1OCc2ccccc2-c2c(n(C)c3ccccc23)C(=O)N([C@H](C)CO)C[C@@H]1C)c1ccccc1
 : 0.3 | 14.1 | -4.1
- COCCNC(=O)C[C@H]1C[C@H]2c3cc(NS(C)(=O)=O)ccc3O[C@H]2[C@H](CO)O1
 : 3.0 | -0.7 | -2.4
- COC(=O)[C@]12C[C@H](CC(=O)NCCC(C)C)C(=O)N(Cc3ccc4c(c3)OCO4)C1=C[C@H](COCc1ccccc1)O[C@@H]2C
 : 4.3 | -11.8 | 6.7
- CC1(C(=O)Nc2cccc3c2CCCC3)CCN1C(=O)C1(c2ccccc2)CC1 (stereo unspecified)
 : 7.4 | -30.1 | -4.6

Rewritten with the structure last: 5 of the compounds above
| rRNA inh HTS | rRNA inh HTS OD600 | rRNA inh HTS RFP | Structure |
| --- | --- | --- | --- |
| 7.4 | -30.1 | -4.6 | CC1(C(=O)Nc2cccc3c2CCCC3)CCN1C(=O)C1(c2ccccc2)CC1 (stereo unspecified) |
| 9.1 | 20.8 | 1.6 | Cc1ccc(S(=O)(=O)NC(=O)NC2=NC(C)(C)N(c3ccc(Cl)c(Cl)c3)C(N)=N2)cc1 |
| 2.9 | 3.1 | 0.7 | CNC[C@H]1OCCCC[C@H](C)Oc2ccc(NS(=O)(=O)c3c(C)noc3C)cc2C(=O)N([C@H](C)CO)C[C@@H]1C |
| -0.1 | 8.0 | -3.3 | CCC(=O)N1CC2(C1)CN(C(=O)Cc1ccccc1)[C@@H](CO)c1c2c2ccc(OC)cc2n1C |
| 12.5 | 23.9 | -2.7 | COc1ccc(S(=O)(=O)N2CCC(C(=O)NCCC(=O)NCc3cccnc3)CC2)cc1 |

Additional structures follow.
molecule,rRNA inh HTS,rRNA inh HTS OD600,rRNA inh HTS RFP
CCCN(C)C[C@H]1Oc2cc(-c3ccc(OC)cc3)ccc2S(=O)(=O)N([C@H](C)CO)C[C@H]1C,5.1,-4.9,1.3
Cc1noc(C)c1NC(=O)N(C)C[C@@H]1Oc2ccc(NC(=O)Nc3ccc(F)cc3)cc2CC(=O)N([C@H](C)CO)C[C@@H]1C,4.0,-2.6,-2.8
Cc1cc(C(=O)Nc2cccc3c2O[C@@H](CN(C)C(=O)Nc2c(C)noc2C)[C@H](C)CN([C@@H](C)CO)C3=O)n(C)n1,2.5,8.6,-2.5
C[C@@H]1CCCCO[C@H](CN(C)CC2CCCCC2)[C@@H](C)CN([C@H](C)CO)C(=O)c2cc(NS(=O)(=O)c3ccc(F)cc3)ccc2O1,3.8,4.5,-0.6
CCN(C[C@@H]1N[C@H](CO)[C@@H]1c1ccc(C2=CCCC2)cc1)C(=O)c1ccccc1,-20.0,-55.8,16.3
COc1ccccc1CNC(=O)C[C@H]1C=C[C@@H](NC(=O)CN(C)C)[C@@H](CO)O1,0.6,3.0,-0.4
COc1cccc(CN(C)C[C@@H]2OCc3cn(nn3)CCCC(=O)N([C@@H](C)CO)C[C@H]2C)c1,-0.7,1.0,-0.1
COc1ccc(NC(=O)N(C)C[C@@H]2OCCCC[C@@H](C)Oc3ccc(NC(=O)Nc4ccc5c(c4)OCO5)cc3C(=O)N([C@@H](C)CO)C[C@H]2C)cc1,0.3,2.5,-1.2
CC1=C(C(=O)N2CCOCC2)CC(CC(=O)NCc2cccc3ccccc23)C(=O)N1Cc1ccccc1 (stereo unspecified),0.9,-6.2,3.0
C[C@@H]1CCCCO[C@@H](CN(C)C(=O)CCC(F)(F)F)[C@H](C)CN([C@@H](C)CO)C(=O)c2cc(NS(=O)(=O)c3cn(C)cn3)ccc2O1,0.3,1.9,0.8
CCOC(=O)c1c(-c2cc(OC)c(OC)c(OC)c2)csc1N,4.5,-0.6,37.0
C[C@@H]1CCCCO[C@H](CN(C)CC2CC2)[C@H](C)CN([C@@H](C)CO)C(=O)c2cc(NC(=O)Nc3ccc(C(F)(F)F)cc3)ccc2O1,-40.0,-64.8,11.6
C[C@@H]1CN([C@H](C)CO)C(=O)c2cc(NC(=O)NC3CCCCC3)ccc2O[C@@H](C)CCCCO[C@@H]1CN(C)C(=O)Nc1ccccc1,3.9,8.4,4.3
CCc1nc2c(OCc3ccc(OC(F)F)cc3)cccn2c1N(C)C(=O)c1ccco1,3.8,0.0,8.7
O=C(Nc1cc(F)ccc1F)N1CC(=O)N2[C@H](CO)[C@@H](c3ccc(-c4ccc(F)cc4)cc3)[C@H]2C1,1.2,-14.0,3.6
CCc1nc2ccc(C(=O)Nc3cccc(NS(C)(=O)=O)c3)cn2c1N(C)CCN1CCOCC1,9.3,4.1,-0.1
CSCCNC(=O)C1(C)CCN1C(=O)CCc1ccccc1 (stereo unspecified),7.8,7.4,0.9
CCCCOCCCNC(=O)C[C@@H]1C[C@@]2(C(=O)OC)CCCCC=C2N(CCC2=CCCCC2)C1=O,-3.7,-20.5,0.6
Cc1ccc(-c2ccc3c(c2)O[C@H](CN(C)Cc2cncnc2)[C@@H](C)CN([C@H](C)CO)S3(=O)=O)cc1,-7.3&-3.7,-12.4&-18.6,-4.7&9.6
Cc1ccc([C@H]2N[C@]3(CCCN(CC4CCCCC4)C3=O)[C@H]3C(=O)N(Cc4ccccc4)C(=O)[C@@H]23)cc1,-1.0,-21.6,-10.9
CC(C)(C)c1ccc(S(=O)(=O)NCC2CCN(C(=O)C(=O)c3cc4ccccc4o3)CC2)cc1,-0.3,0.1,1.0
Cn1c(CCN2CCCC2)nc2cc(NC(=O)COc3ccc(Cl)cc3)ccc21,-8.7,8.0,5.4
COC(=O)c1cc2c(c3c4cc(C)ccc4n(S(=O)(=O)c4cccc(C)c4)c13)C(=O)N(Cc1ccc(N(C)C)cc1)C2,-2.7,-4.3,0.2
COc1ccc(NC(=O)N(C)C[C@@H]2Oc3c(NC(=O)NC(C)C)cccc3C(=O)N([C@H](C)CO)C[C@H]2C)cc1,-2.5,-0.8,-2.0
CCC(=O)Nc1ccc2c(c1)C(=O)N(C)C[C@H](OC)[C@H](C)CN(C(=O)c1ccccc1F)[C@@H](C)CO2,-0.7,0.6,1.8
C[C@@H]1CN([C@H](C)CO)C(=O)Cc2cc(NS(=O)(=O)c3ccc(F)cc3)ccc2O[C@@H]1CN(C)Cc1ccccc1,-2.0,-15.8,0.9
C[C@@H]1CN([C@H](C)CO)C(=O)c2ccccc2-c2ccccc2CO[C@@H]1CN(C)C(=O)Nc1cccc(F)c1,-0.9,7.5,-1.6
COc1cccc(NC(=O)N(C)C[C@@H]2Oc3ncc(C#Cc4cccnc4)cc3C(=O)N([C@@H](C)CO)C[C@H]2C)c1,-1.5,-1.3,-1.9
O=C(C[C@@H]1CC[C@H](NC(=O)Nc2cc(F)ccc2F)[C@H](CO)O1)NCCCN1CCOCC1,4.1,1.6,1.4
CC(C)NC(=O)Nc1ccc2c(c1)C(=O)N(C)[C@H]1CC[C@@H](CC(=O)NCc3ccc(F)cc3)O[C@@H]1CO2,1.8,3.0,-2.0
